Screens as filed in PubChem BioAssay.
2A firefly: lowers the firefly signal of an FMDV 2A StopGo reporter | HEK cells with a luciferase reporter of 2A StopGo recoding | Potency, µM (series often up to 57.5 µM), for the others: at the top dose signal change, negative = less light | hit rate 0.23% among 120,000 | AID 1745856; active = well fitted falling curve with a large enough effect; inconclusive = small, poorly fitted or top-dose-only effect; inactive = no such curve, though single readings can be large or run the other way; note: nearly all actives have a fitted effect of over 60% in size; overnight with compound
StopGo RLuc: FMDV 2A StopGo reporter, Renilla signal; hit rate 0.32% among 120,000; Potency, µM (series often up to 57.5 µM), for the others: at the highest dose signal change, negative = less light; HEK cells with a luciferase reporter of 2A StopGo recoding; active means well fitted falling curve with a large enough effect; inconclusive means small, poorly fitted or top-dose-only effect; inactive means no such curve, though single readings can be large or run the other way; note: nearly all actives have a fitted effect of over 55% in size; overnight with compound
* hit, by the source's call; ? = inconclusive; [ ] = another dose, or the depositor's remark. % is set by controls: 0 for no effect and ±100 for the full control effect; potency is the fitted concentration of half-maximal effect.

| SMILES | 2A firefly | StopGo RLuc |
| --- | --- | --- |
| Cc1ccc(-c2nc(CS(=O)(=O)Cc3cccc(F)c3)co2)cc1 | 22% | 17% |
| CCOc1ccccc1NC(=O)CSc1nccn1-c1cccc(C(F)(F)F)c1 | -14% | 7% |
| Cc1ccnc(NC(=O)c2cc(C)nc3ccccc23)c1 | 176%[activator] | -6% |
| O=C(Cn1ncc2ccccc2c1=O)Nc1ncc(Cc2ccc(C(F)(F)F)cc2)s1 | -9% | -13% |
| CCCCCCCOc1ccc(/C=C/c2ccc(CCCCCCC)cn2)cc1 | -2% | -11%[1.06 µM] |
| CC(C)C1Cc2c(sc3nc(SCC(=O)c4ccccc4)nc(N)c23)CO1 (stereo not given) | 5% | 3% |
| CCOc1ccc(NC(=O)CSCc2cc(=O)c3cccc(OC)c3[nH]2)cc1 | -11% | -4% |
| O=C(CCc1c[nH]c2ccccc12)Nc1ccc(Oc2ccccc2)cc1 | 21% | 1% |
| CCOC(=O)C1CCCN(C(=O)Cn2c(=O)cc(C)c3c(C)nn(C)c32)C1 (stereo not given) | -11% | 10% |
| COc1cc(NC(=O)C(=O)NC(C)CCc2ccccc2)ccc1N1CCCCS1(=O)=O (stereo not given) | -13% | -19% |
| CC1=C2C(=O)CC(c3cccc(Cl)c3)CC2=Nc2ccccc2N1 (stereo not given) | ? | 18µM* |
| Cc1cccc(OCCn2c(C)nc3cc(C)c(C)cc32)c1 | 3% | 2% |
| O=C(Nc1nnc(S(=O)(=O)N2CCCc3ccccc32)s1)c1cccc(F)c1 | -18% | -5% |
| COc1cc(NC(=O)NC(C)c2c(-n3cccc3)sc3c2CCCC3)cc(OC)c1OC (stereo not given) | -14% | -11% |
| Cc1c(C)n(CCCN(C)C)c2ncn3nc(COc4cccc5ccccc45)nc3c12 | 27% | -3% |
| CCOCCCNC(=O)C1CCN(c2nn3cc(-c4ccc(F)cc4)nc3s2)CC1 | 70%[activator] | ? |
| O=c1[nH]c(N2CCOCC2)nc2nccc(-c3cccnc3)c12 | 2% | -5% |
| COc1ccc(-c2nc(SCC(=O)Nc3ccc4c(c3)OCCO4)c(-c3ccccc3)[nH]2)cc1 | -16% | 120%[activator] |
| COc1ccccc1CNC(=O)C(C)n1c(=O)cc(C(F)(F)F)c2c(C)nn(C)c21 (stereo not given) | -10% | -9% |
| O=C(O)CCNS(=O)(=O)/C=C/c1ccccc1 | 1% | -6% |
| O=C(COC(=O)CC12CC3CC(CC(C3)C1)C2)Nc1ccc(F)c([N+](=O)[O-])c1 | 6% | -5% |
| Cc1ccc(NC(=O)CCC2CCCCC2)cc1 | 32%[activator] | 15% |
| CC(Sc1nnc(-c2cccs2)n1C1CC1)C(=O)N1CCc2ccccc2C1 (stereo not given) | -11% | -9% |
| COCCCNc1oc(/C=C/c2ccc(OC)c(OC)c2)nc1C#N | 48%[activator] | 36%[activator] |
| Cc1cc(C)cc(OCC(=O)N2CCC(c3nc4ccccc4s3)CC2)c1 | 0% | 13% |
| O/N=C/c1cn(Cc2ccccc2)c2ccccc12 | -17% | -24% |
| COc1ccc(CCn2c(SCCC(C)C)nc3c2c(=O)n(C)c(=O)n3C)cc1 | 0% | 9% |
| Cc1cc2c(cc1C)CSC(c1ccccc1OC(=O)c1ccc(I)cc1)SC2 | 1% | -2% |
| CC(=O)c1ccc(-n2c(CCC(=O)O)ccc2-c2cccs2)cc1 | 19% | 17% |
| CCCCn1c(-c2ccc(S(=O)(=O)N3CCOCC3)cc2)csc1=Nc1ccccc1 | 27% | -1% |
| Fc1ccc(CNC(=S)Nc2cccc(F)c2)cc1 | 95%[activator] | 273%[activator] |
| CC(=O)c1cccc(NC(=O)Cn2c(-c3cncs3)nc3ccccc32)c1 | -12% | -10% |

Already shown: entries from further up.
| SMILES | 2A firefly | StopGo RLuc |
| --- | --- | --- |
| O=C(CCc1c[nH]c2ccccc12)Nc1ccc(Oc2ccccc2)cc1 | 21% | 1% |
| CCOC(=O)C1CCCN(C(=O)Cn2c(=O)cc(C)c3c(C)nn(C)c32)C1 (stereo not given) | -11% | 10% |
| COc1cc(NC(=O)C(=O)NC(C)CCc2ccccc2)ccc1N1CCCCS1(=O)=O (stereo not given) | -13% | -19% |
| CC1=C2C(=O)CC(c3cccc(Cl)c3)CC2=Nc2ccccc2N1 (stereo not given) | ? | 18µM* |
| Cc1cccc(OCCn2c(C)nc3cc(C)c(C)cc32)c1 | 3% | 2% |
| O=C(Nc1nnc(S(=O)(=O)N2CCCc3ccccc32)s1)c1cccc(F)c1 | -18% | -5% |
| COc1cc(NC(=O)NC(C)c2c(-n3cccc3)sc3c2CCCC3)cc(OC)c1OC (stereo not given) | -14% | -11% |
| Cc1c(C)n(CCCN(C)C)c2ncn3nc(COc4cccc5ccccc45)nc3c12 | 27% | -3% |
| CCOCCCNC(=O)C1CCN(c2nn3cc(-c4ccc(F)cc4)nc3s2)CC1 | 70%[activator] | ? |
| O=c1[nH]c(N2CCOCC2)nc2nccc(-c3cccnc3)c12 | 2% | -5% |
| COc1ccc(-c2nc(SCC(=O)Nc3ccc4c(c3)OCCO4)c(-c3ccccc3)[nH]2)cc1 | -16% | 120%[activator] |
| COc1ccccc1CNC(=O)C(C)n1c(=O)cc(C(F)(F)F)c2c(C)nn(C)c21 (stereo not given) | -10% | -9% |
| O=C(O)CCNS(=O)(=O)/C=C/c1ccccc1 | 1% | -6% |
| O=C(COC(=O)CC12CC3CC(CC(C3)C1)C2)Nc1ccc(F)c([N+](=O)[O-])c1 | 6% | -5% |
| Cc1ccc(NC(=O)CCC2CCCCC2)cc1 | 32%[activator] | 15% |
| CC(Sc1nnc(-c2cccs2)n1C1CC1)C(=O)N1CCc2ccccc2C1 (stereo not given) | -11% | -9% |
| COCCCNc1oc(/C=C/c2ccc(OC)c(OC)c2)nc1C#N | 48%[activator] | 36%[activator] |
| Cc1cc(C)cc(OCC(=O)N2CCC(c3nc4ccccc4s3)CC2)c1 | 0% | 13% |
| O/N=C/c1cn(Cc2ccccc2)c2ccccc12 | -17% | -24% |
| COc1ccc(CCn2c(SCCC(C)C)nc3c2c(=O)n(C)c(=O)n3C)cc1 | 0% | 9% |
| Cc1cc2c(cc1C)CSC(c1ccccc1OC(=O)c1ccc(I)cc1)SC2 | 1% | -2% |
| CC(=O)c1ccc(-n2c(CCC(=O)O)ccc2-c2cccs2)cc1 | 19% | 17% |

(next part)
| SMILES | 2A firefly | StopGo RLuc |
| --- | --- | --- |
| Cc1cccc(CN2C(=O)CN=C(c3ccccc3)c3ccccc32)c1 | 5% | 0% |
| CC(NC(=O)c1nccnc1N)c1ccccc1 (stereo not given) | -3% | -2% |
| CCOc1ccc(C2Nc3ccccc3-c3nnc(SCc4ccccc4)nc3O2)cc1OC (stereo not given) | 24% | -10% |
| O=C(Nc1nccs1)c1ccc[n+]([O-])c1 | 10% | -1% |
| Cc1cc(=S)n2ccccc2n1 | 7% | -9% |
| O=C(O)c1c[nH]c2ccc(Br)cc12 | -6% | 5% |
| O=[N+]([O-])c1ccc(Oc2cccc3cccnc23)cc1C(F)(F)F | 89%[activator] | 46%[activator] |
| CCOC(=O)N1CCc2c(sc3c2c(=O)n(-c2ccc(CC)cc2)c(=O)n3C)C1 | -5% | -8% |
| Cc1ccccc1C(=O)NCCSc1c(C)[nH]c2ccccc12 | -5% | 7% |
| Cc1cc(C)c(NC(=O)CCc2ncc(-c3ccccc3)o2)c(C)c1 | 17% | 22% |
| O=C(O)C1(c2cccc(F)c2)CCCCC1 | 9% | 11% |
| Cc1ccc(-c2nc(S(=O)(=O)c3ccc(C)cc3)c(SCC(=O)c3ccccc3)o2)cc1 | -11% | 213%[activator] |
| Cc1cc2nc(-c3ccc(OCc4ccccc4C)cc3)cc(C(F)(F)F)n2n1 | -4% | -1% |
| O=C(Nc1cccnc1)c1cc(-c2ccncc2)nc2ccccc12 | -6% | -6% |
| CSc1cccc(NC(=O)CSc2n[nH]c(-c3ccccc3Cl)n2)c1 | 21% | 18% |
| COc1ccccc1/C=N/NC(=O)CCC(=O)Nc1cccc(Cl)c1C | 7% | 2% |
| C/C(=N/Nc1ccc(S(=O)(=O)Nc2ccccc2)cc1[N+](=O)[O-])c1ccc(C#N)cc1 | 0% | 56%[activator] |
| Cc1nc(C2CC2)ncc1C(=O)O | 27% | 17% |
| Fc1ccc(-n2ncc3c(Nc4cccc(Cl)c4)ncnc32)cc1 | 139%[activator] | 10% |
| Clc1ccc(CCNC(c2nnc(-c3ccccc3)o2)c2ccccc2Cl)cc1 (stereo not given) | -9% | 66%[activator] |
| CCOc1ccc(-c2ncnn2-c2sc3c(c2C#N)CCCCC3)cc1 | 10% | -11% |
| CCC(CC)NC(=O)C(C)c1ccc2cc(OC)ccc2c1 (stereo not given) | 43%[activator] | 43%[activator] |
| Cc1ccc(NC(=O)C2CC(=O)N(C(C)C)C2)cc1Cl (stereo not given) | 0% | 1% |
| COc1ccc(Cn2c(C(=O)O)c(CNCc3cccc(OC)c3)c3ccc(C)cc32)cc1 | 2% | 44%[activator] |
| O=C1CC(C(=O)O)C2(CCCCC2)O1 (stereo not given) | ? | 35% |
| O=C(Cn1ncc2ccsc2c1=O)N1CCN(c2ccccc2)CC1 | -6% | -10% |
| Cc1ccc(-n2nc(CO)c(C(=O)NCc3cccnc3)n2)cc1C | 21% | -3% |
| COc1ccc2c(C)c(CCC(=O)NCc3ccc4c(c3)OCO4)c(=O)oc2c1 | 1% | 1% |
| COc1ccc(C2NC(=O)NC3=C2C(=O)N(Cc2ccccc2)C3)cc1OC (stereo not given) | 11% | -4% |
| Cc1ccccc1NC(=O)COC(=O)c1ccc2ccccc2n1 | 1% | -15% |
| Cc1cccc(N2CCN(CCCNC(=O)Cn3ncc4c([nH]c5ccccc54)c3=O)CC2C)c1 (stereo not given) | 8% | -16% |
| Cc1cc(C)c2c(n1)SCC(=O)N2CC(=O)Nc1ccc(C)c(C)c1 | ? | ? |
| Fc1ccc(CSc2nncn3c2cc2occc23)c(Cl)c1 | 6% | -2% |
| CCOc1ccc(N(CC(=O)Nc2ccc3c(c2)OCO3)S(=O)(=O)c2ccccc2)cc1 | 14% | 149%[activator] |
| CCC(C)NC(=O)CCc1cccnc1 (stereo not given) | 69%[activator] | 12% |
| CN(Cc1nc2scc(-c3ccc(F)cc3)c2c(=O)[nH]1)Cc1ccco1 | 24% | -1% |
| COc1ccc(C(=O)c2c(C)n(CCN3CCOCC3)c3ccccc23)cc1 | -10%[11.5 µM] | -10% |
| CCc1cc2c(SCC(=O)Nc3ccc(NC(C)=O)cc3)ncnc2s1 | 0% | -8% |
| Cc1ccc(-n2nc(C)c3c(C)c(CCC(=O)NCc4ccccc4Cl)c(C)nc32)cc1 | 24% | -4% |
| O=C(COCc1cc(-c2ccc(F)cc2)on1)Nc1cc(F)ccc1F | -3% | 6% |
| O=C(O)C(=O)/C(=C/c1ccsc1)c1ccc2ccccc2n1 | 132%[activator] | 22% |
| COc1ccc(NC(=O)COc2ccc3cc(Br)ccc3c2)cc1S(=O)(=O)N(C)C | -31% | ? |
| Cc1nc(-c2cccc(N3CC(C(=O)NC4CCCCC4)CC3=O)c2)no1 (stereo not given) | 0% | 18% |
| CN(C)C(=O)Oc1cccc([N+](C)(C)C)c1 | 22%[11.5 µM] | 10% |
| O=C1c2ccccc2C(=O)C1(c1ccccc1)N1CCN(c2cccc(C(F)(F)F)c2)CC1 | -3% | -10% |
| Cc1ccccc1Nc1nc(C(=O)NCc2ccccc2)cs1 | 34%[activator] | 15% |
| CCCCC(=O)Nc1cc(C)c(O)c(-c2nc3ccccc3o2)c1 | 3% | -5% |
| C/C(=N\Nc1ccc(F)cc1F)c1sc2ccc(Cl)cc2c1C | 1% | 15% |
| COc1cc(C)c(NC2CCOC2=O)cc1OC (stereo not given) | 18% | 0% |
| Cc1ccc2nc(-c3c[nH]c4ccccc34)c(Nc3ccccc3C)n2c1 | 114%[activator] | 13% |
| COc1cc(Nc2ncnc3onc(-c4ccc(Cl)cc4)c23)cc(OC)c1 | -1% | -10% |
| NS(=O)(=O)c1ccc(NCS(=O)(=O)O)cc1 | -2% | -13% |
| CCn1cc(C(=O)NCc2ccccc2Cl)c(=O)c2cc(S(=O)(=O)N3CCCCCC3)ccc21 | 0% | -4% |
| COc1ccc(OC)c(NC(=O)Cn2c(=O)n(CC3CCCO3)c(=O)c3cc(OC)c(OC)cc32)c1 (stereo not given) | 12% | 11% |
| C=CCNC(=O)NC(=O)Cn1ccnc1 | 2% | 13% |
| Cc1ccc2nc(-c3ccc(F)cc3)c(NC(C)(C)CC(C)(C)C)n2c1 | -1% | -3% |
| Cc1ccc(S(=O)(=O)NCC(c2cccs2)N(C)C)s1 (stereo not given) | 0% | 187%[activator] |
| O=C(c1cn(-c2ccccc2)nc1-c1cccnc1)N1CCN(c2ccc(O)cc2)CC1 | 0% | 30% |
| CCCCN(C)S(=O)(=O)c1ccc(C(=O)Nc2sc3c(c2C(N)=O)CC(C)(C)NC3(C)C)cc1 | -17% | -9% |
